From PubChem BioAssay
MLL AF4-AF9 inh – inhibitors of human MLL-AF4/AF9 interaction. P42568. AlphaScreen, biotin-AF4 peptide binding to FLAG-AF9. inhibition, % at 10 µM. 350,000 compounds, 0.47% hits;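 active = every replicate reaching a set inhibition limit, whatever the replicate mean, cut at about 25% in these data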;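 also: 0% = plate neutral control median and 100% = total signal loss; the record names both 10 and 1 µM as test concentration; the first replicate is given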
Target sequence (P42568 whole entry, looked up): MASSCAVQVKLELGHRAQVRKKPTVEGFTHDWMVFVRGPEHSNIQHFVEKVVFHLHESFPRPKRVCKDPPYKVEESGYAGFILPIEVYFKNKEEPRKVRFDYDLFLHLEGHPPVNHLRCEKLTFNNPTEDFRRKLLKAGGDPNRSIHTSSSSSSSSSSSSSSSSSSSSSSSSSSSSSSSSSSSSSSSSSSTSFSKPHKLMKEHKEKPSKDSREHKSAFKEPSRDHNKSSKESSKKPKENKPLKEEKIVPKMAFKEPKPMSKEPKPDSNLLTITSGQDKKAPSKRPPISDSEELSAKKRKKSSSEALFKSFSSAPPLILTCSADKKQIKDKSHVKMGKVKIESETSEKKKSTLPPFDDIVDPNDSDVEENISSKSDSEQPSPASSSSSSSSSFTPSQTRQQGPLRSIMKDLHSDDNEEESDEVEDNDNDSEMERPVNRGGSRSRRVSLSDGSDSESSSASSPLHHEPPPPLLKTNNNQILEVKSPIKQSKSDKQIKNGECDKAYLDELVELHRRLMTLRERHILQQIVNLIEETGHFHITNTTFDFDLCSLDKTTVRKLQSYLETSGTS
rRNA inh HTS – inhibits bacterial ribosomal RNA function over humanized ribosomes. 350,000 compounds, 1.6% hits. E. coli WT GFP vs humanized-ribosome RFP mutants, fluorescence, 24 h; hits give low values; DMSO median 0, no signal -100. GFP signal change (wild-type ribosome), % (no concentration beside the values). AID 720706;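 active = significant combined selectivity score with lowered wild-type GFP, culture density cut under 30%, mutant RFP and density less affected; inactive = any of these conditions unmet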; also: one replicate is shown; some compounds called inactive have numbers as strong as hits
Vif A3G – inhibitors of Vif binding to APOBEC3G peptide, primary screen, biochemical, TR-FRET, GST-Vif 1-94, biotin-A3G peptide, dose response retest (AID 1117319). TR-FRET GST-Vif / biotin-A3G peptide binding; higher % means a stronger effect; test concentration not given here; strong numbers were not always called active. inhibition, %; hits with a dose series show IC50 in µM. 260,000 compounds, 0.57% hits;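 active = above the screen mean plus three standard deviations and confirmed in dose response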;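 also: Vif residues 1-94 fused to GST binding biotinylated APOBEC3G peptide 110-148; 0% = full assay without inhibitor and 100% = GST in place of GST-Vif; retest series ran down from 100 µM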
rRNA inh HTS OD600 – also measured in rRNA inh HTS; calls as there; OD600 change, %; measured here: OD600 growth;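 optical density of the mix in the first replicate; 0 = DMSO median and -100 = no signal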
rRNA inh HTS RFP – also measured in rRNA inh HTS; calls as there; RFP signal change, %; measured here: RFP humanized mutant strains;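 first replicate; 0 = DMSO median and -100 = no signal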
* marks the source's active call; other numbers are inactive results; & = joins results of further samples. Not all compounds are listed. The share of hits here may be higher or lower than overall.

MLL AF4-AF9 inh | rRNA inh HTS | rRNA inh HTS OD600 | rRNA inh HTS RFP | Vif A3G | SMILES
-2.2 | 9 | 11 | 1.1 | -1% | COC(=O)Cc1ccc(OCC(=O)NC2CCCC2)cc1
-3.4 | 4 | 6 | -1.8 | 4% | COc1cccc(CNC(=O)[C@H](C)NC(=O)N2CC(=O)Nc3ccccc32)c1
0.7 | -5 | -8 | -3.9 | -3% | CCOc1ccc(Oc2ccc(NC(=O)CSc3nncn3C)cc2)cc1
-7.5 | -7 | -23 | 0.7 | -6% | C[C@@H]1[C@H]2CCCC[C@H]2CN(C(=O)OC(C)(C)C)[C@@H]1CC(=O)c1ccccc1
-2.7 | -30 | -36 | -5.8 | 1% | OC[C@@H]1CC[C@@H](Cc2ccc(-c3ccccc3)cc2)O1
2.8 | -4 | 3 | 1.0 | -3% | CCN(CC)Cc1cc(C(C)(C)C)cc(N2CCOCC2)c1O
15 | -3 | -24 | -4.5 | -3% | COc1ccc(C(C)=NOC(=O)c2c(-c3ccccc3Cl)noc2C)cc1CN1CCOCC1
4.3&6.1 | 27&0 | 16&11 | 5.5&-4.0 | 1% | C[C@@H]1CN([C@H](C)CO)C(=O)CCCn2nncc2CO[C@@H]1CN(C)C(=O)Nc1ccc(N2CCN(C)CC2)cc1
-1.4 | -36 | -60 | 20 | 11% | Cc1cc(C)c(S(=O)(=O)Nc2ccccc2)c(C)c1
-1.8 | -10 | -22 | 2.9 | -6% | COC(=O)c1ccc(CNC(=O)CN2C(=O)NC(Cc3ccccc3)(c3ccccc3)C2=O)cc1 (configuration not stated)
-3.4 | 3 | 12 | -0.5 | 0% | CN(Cc1cccc(F)c1)C(=O)CSc1nnc(C2CC2)n1C1CC1
0.9 | -7 | 17 | -4.2 | -2% | C=C(CN(C)C)C(=O)c1ccc(C)cc1C
-1.1 | 4 | 0 | 1.6 | 0% | Cc1cccc(CC(=O)NCCS(=O)(=O)N2CCN(c3ccccc3)CC2)c1
-0.3 | 16 | 15 | 2.0 | 5% | COCCN(C(=O)c1ccc(N2C(=O)c3ccccc3C2=O)cc1)c1c(N)n(CC(C)C)c(=O)[nH]c1=O
5.8 | 0 | 2 | 0.0 | -5% | CCOC(=O)N1CCN(C(=O)COC(=O)c2ccc([N+](=O)[O-])cc2Cl)CC1
-4.8 | -5 | -1 | 2.6 | -1% | O=C(COC(=O)c1ccccc1)NC(=O)NC1CCCC1
-33 | -2 | 9 | -4.5 | -3% | COCCN(C(=O)C(C)N1C(=O)c2ccccc2C1=O)c1c(N)n(CC(C)C)c(=O)[nH]c1=O (configuration not stated)
4.2 | 28 | 20 | 3.7 | -6% | Cc1ccc(-c2c(C)cc3oc(=O)cc(-c4ccccc4)c3c2C)cc1
3.1 | -37* | -11* | -1.9* | 3%&12% | N#CC1=C2SCC(O)(c3ccccc3)N2C(=O)CC1c1cccs1 (configuration not stated)
-7.9 | 17 | 10 | 0.5 | -5% | O=C(O)c1ccc(Cn2cnc3c(=S)nc[nH]c32)cc1
-0.2 | 4 | 3 | -1.7 | -4% | OCC1OC(n2cnc3c(N4CCCCC4)ncnc32)C(O)C1O (configuration not stated)
7.4 | 2 | 3 | -6.8 | 4% | CCOC(=O)C1(CC)Oc2ccccc2C(c2ccc(OC)cc2)=C1C(=O)OC (configuration not stated)
-0.9 | 1 | 6 | -3.1 | -9% | Cn1c(=O)c2[nH]c(SCCN3CCCCC3)nc2n(C)c1=S
-2.6&-1.3 | -5&4 | -2&18 | -3.0&-2.9 | 3% | CCC(=O)N(C)C[C@H]1Oc2ncc(C#Cc3cccnc3)cc2C(=O)N([C@@H](C)CO)C[C@@H]1C
-0.4 | 5 | 9 | 1.2 | 11% | CC(=O)c1cccc(NC(=O)C2CCCN2S(=O)(=O)c2ccccc2C(F)(F)F)c1 (configuration not stated)

A different layout for part of the listing above.
Structure,MLL AF4-AF9 inh,rRNA inh HTS,rRNA inh HTS OD600,rRNA inh HTS RFP,Vif A3G
O=C(O)c1ccc(Cn2cnc3c(=S)nc[nH]c32)cc1,-7.9,17,10,0.5,-5%
Cc1cccc(CC(=O)NCCS(=O)(=O)N2CCN(c3ccccc3)CC2)c1,-1.1,4,0,1.6,0%

Copied from the list.
Value of C=C(CN(C)C)C(=O)c1ccc(C)cc1C under MLL AF4-AF9 inh: 0.9
Value of Cc1cccc(CC(=O)NCCS(=O)(=O)N2CCN(c3ccccc3)CC2)c1 under rRNA inh HTS RFP: 1.6
Value of COC(=O)Cc1ccc(OCC(=O)NC2CCCC2)cc1 under rRNA inh HTS RFP: 1.1

Later entries.
MLL AF4-AF9 inh | rRNA inh HTS | rRNA inh HTS OD600 | rRNA inh HTS RFP | Vif A3G | SMILES
-1.6 | -8 | -20 | 4.2 | 3% | CC(Sc1nc(-c2ccccc2)c(-c2ccccc2)[nH]1)C(=O)NCC1CCCO1 (configuration not stated)
-7.9 | -51 | -64 | -12 | -12% | CN(C)C(=S)NC(=S)Nc1ccc2ccccc2c1
1.7&-5.3 | 16&1 | 5&2 | 5.3&-0.2 | 7% | C[C@@H]1CN([C@H](C)CO)C(=O)c2cc(NC(=O)Nc3ccc(F)cc3)ccc2O[C@@H](C)CCCCO[C@H]1CN(C)S(=O)(=O)c1cccs1
-1.8 | 3 | 7 | 0.4 | 10% | CC(=O)N(C)c1ccc(N=Nc2ccc3ncccc3c2)cc1
1.2 | 9 | 8 | 0.7 | -6% | CCOC(=O)C1=C(COC(=O)/C=C/c2ccc(OC)cc2)NC(=O)NC1C (configuration not stated)
0.4&0.8 | 8&-1 | 15&0 | 0.2&-0.7 | -6% | C[C@@H]1CN([C@@H](C)CO)C(=O)CCCn2nncc2CO[C@@H]1CN(C)S(=O)(=O)c1cccc(F)c1
5.7 | 4 | 6 | 5.6 | 5% | O=C(NC(Cc1ccccc1)C(=O)N1CCN(c2ccccc2O)CC1)c1ccccc1 (configuration not stated)
-8.5 | 11 | 6 | -1.6 | 2% | COCCCN1C(=O)C(CC(=O)NCc2ccco2)CC(C(=O)N(C)C)=C1C (configuration not stated)
-2.6 | 10 | 13 | 0.4 | 6% | O=C(O)c1ccc(NC(=O)C2CCN(S(=O)(=O)c3ccc4c(c3)OCCO4)CC2)cc1
2.7 | -1 | 0 | -0.2 | -2% | CCOc1ccc(S(=O)(=O)N2CCOCC2)cc1NC(=O)CCOc1ccc(C(C)(C)C)cc1
5.3 | -3 | 1 | -2.2 | 5% | CCCn1c(SCC(=O)N2c3ccccc3CC2C)n[nH]c1=O (configuration not stated)
1.0 | 4 | -3 | 0.6 | -5% | COC(=O)[C@]1(Cc2ccccc2)N[C@H](CN(C)C(=O)C2CCCCC2)[C@@H]2C(=O)N(Cc3ccccc3)C(=O)[C@@H]21
-3.4 | 29 | 23 | 5.5 | 8% | N#Cc1ccc(NN=Nc2ccccc2C#N)cc1
-0.3 | 19 | 0 | 19 | -6% | COc1ccc([C@H]2C[C@H](n3cc(-c4ccc(F)cc4)nn3)[C@@H](O)CN2CC2CCCCC2)cc1
-0.8 | 22 | 12 | -0.5 | -1% | COc1cc(C(=O)C(O)c2ccc(O)c(OC)c2)ccc1O (configuration not stated)
-1.1 | -1 | -2 | 4.9 | 3% | COc1ccc(CN2C(=O)C(CC(=O)NC3CCCCC3)CC(C(=O)N(C(C)C)C(C)C)=C2C)cc1 (configuration not stated)
0.4 | -8 | -28 | -4.7 | -5% | Cc1ccc(S(=O)(=O)Nc2cncnc2NS(=O)(=O)c2ccc(C)cc2)cc1
7.4 | -3 | -1 | -0.9 | -6% | CC(Sc1nnc(-c2ccco2)n1C)C(=O)Nc1ccc(N2CCOCC2)cc1 (configuration not stated)
9.6 | -7 | -22 | -2.8 | -1% | COc1ccc(C(=S)N2CCN(c3ccccc3C)CC2)cc1OC
-0.1 | -8 | -3 | -2.5 | -40% | COc1ccc2c(-c3ccc(S(N)(=O)=O)cc3)c(-c3ccc(S(C)(=O)=O)cc3)sc2c1
-0.1 | 1 | -1 | -3.6 | 0% | COc1ccc(C(=O)N/C(=C/c2cccs2)C(=O)N2CCN(C)CC2)cc1
1.2 | 11 | 9 | 1.0 | -6% | CN(C)Cc1cc(OCc2ccccc2)cc(CN(C)C)c1O
-2.6 | 0 | 5 | -6.0 | 5% | CCn1nnnc1-c1ccc(OC)c(S(=O)(=O)Nc2ccccc2OC)c1
-14 | 0 | 2 | 1.6 | -16% | O=C(Nc1ccc(-n2cnnn2)cc1)c1cc(S(=O)(=O)N2CCCC2)ccc1Cl
-1.3 | -1 | -11 | -3.1 | -3% | Cc1nn(-c2ccncc2)c2c1C(=O)CC(C)(C)C2Br (configuration not stated)
-0.9 | 5 | 17 | 0.5 | -5% | COc1ccc(-c2ccc3c(c2)C2CC3CCN2S(=O)(=O)c2ccccc2C)cc1 (configuration not stated)
-1.0 | 8 | 3 | -2.8 | 0% | COC(=O)c1sccc1NS(=O)(=O)c1ccccc1[N+](=O)[O-]
1.7 | 5 | 5 | -1.9 | 5% | Cc1cnc(N)nc1-c1ccccc1
2.1 | -9 | 9 | 21 | -11% | CCN(CC)c1ccc(C=NNc2ccc([N+](=O)[O-])cn2)cc1
2.2 | -9 | -19 | 2.1 | 2% | CC(C)Oc1ccc(S(=O)(=O)N2CCOCC2)cc1NC(=O)CSC(=S)N1CCCC1
-17 | -2 | -1 | -1.5 | 17% | Cc1cc(S(=O)(=O)Nc2nc(CN3CCOCC3)nc3sc4c(c23)CCC4)cc(C)c1C
-5.8 | 11 | 9 | 0.0 | -5% | CSc1ncc(CN2CCN(C3CCN(C(C)C)CC3)C(CCO)C2)cn1 (configuration not stated)
-4.0&1.6&-2.7 | 4&0 | 8&2 | -3.1&-0.5 | -5% | C[C@@H]1CN([C@H](C)CO)C(=O)CCCn2nncc2CO[C@H]1CN(C)Cc1ccncc1
-6.4 | 8 | 9 | 8.1 | -5% | Cc1ccc[n+](C(C(=S)NCc2ccco2)=C([O-])c2ccccc2Cl)c1
6.5 | -7 | -23 | -2.3 | 1% | C#CCOC(=O)CCCN1C(=O)c2cccc3cccc(c23)C1=O
0.1 | -11 | -15 | 11 | 14% | Cc1ccc([C@H]2C[C@@H](n3cc(C4CC4)nn3)[C@H](O)CN2Cc2cccs2)cc1
1.3 | 1 | 8 | 1.4 | -3% | C=Cn1cc(CNC[C@H]2O[C@@H](n3ccc(N)nc3=O)[C@H](O)[C@@H]2O)c(C)n1
-2.6 | -2 | 1 | 1.1 | 5% | Cc1ccc2nc(-c3ccccc3)nn2c1
-3.3 | 4 | 1 | 5.1 | -2% | COc1cc2c3c(c1OC)-c1cc4c(cc1CC3(C#N)N(C(=O)c1ccccc1)CC2)OCO4 (configuration not stated)
4.0 | 7 | 2 | 2.5 | -11% | CCN(CC(=O)Nc1ccc(OC)cc1)CC(=O)Nc1sc2c(c1C(=O)OC)CCCC2
-0.2 | 9 | 23 | 0.2 | 2% | Cc1c(NC(=O)COC(=O)c2ccccc2O)c(=O)n(-c2ccccc2)n1C
5.8&0.6 | 7&-2 | -14&-12 | 11&1.1 | 4% | C[C@@H]1CCCCO[C@@H](CN(C)Cc2ccc3c(c2)OCO3)[C@@H](C)CN([C@H](C)CO)C(=O)c2cc(NS(=O)(=O)c3ccccc3)ccc2O1
-3.3 | 7 | 11 | -3.4 | -9% | COC(=O)[C@@]1(C)[C@H]2C(=O)N(C)C(=O)[C@H]2[C@H]2CN(C)C(=NC3CCCCC3)N21
-21 | 1 | -1 | -0.4 | -5% | COC(=O)c1ccc(COC(=O)C(NC(=O)Cc2ccccc2)C(C)C)cc1 (configuration not stated)
-14 | 10 | 15 | -3.4 | -3% | COc1ccc(C(=O)NC(=O)COC(=O)CCS(=O)(=O)c2ccc(C)cc2)cc1
3.9&4.0 | -2 | 0 | -1.2 | 3% | C[C@H]1CCCCO[C@@H](CN(C)S(=O)(=O)c2ccc(F)cc2)[C@@H](C)CN([C@@H](C)CO)C(=O)c2cc(NC(=O)Nc3ccc4c(c3)OCO4)ccc2O1
3.2 | 4 | 8 | 1.6 | 0% | COC(=O)C1=C(C)NC(C)=C(C(=O)OC)C1C(=O)OCC(=O)NC1CCCCC1C (configuration not stated)
-2.3 | -3 | -11 | -4.7 | 5% | O=C(N/N=C/c1c(O)ccc2ccccc12)C(=O)N1CCCC1
-1.1 | -7 | -19 | 5.3 | 3% | CCOC(=O)C1=CN(Cc2ccco2)S(=O)(=O)NC1c1ccc(C(F)(F)F)cc1 (configuration not stated)

Filtered by structure: those above containing a COOH group.
MLL AF4-AF9 inh | rRNA inh HTS | rRNA inh HTS OD600 | rRNA inh HTS RFP | Vif A3G | SMILES
-7.9 | 17 | 10 | 0.5 | -5% | O=C(O)c1ccc(Cn2cnc3c(=S)nc[nH]c32)cc1
-2.6 | 10 | 13 | 0.4 | 6% | O=C(O)c1ccc(NC(=O)C2CCN(S(=O)(=O)c3ccc4c(c3)OCCO4)CC2)cc1
